GLP1R cytotox: cytotoxic in the GLP-1 receptor inverse agonist counter-screen. HEK293 cAMP-luciferase reporter cells, luminescence, 24 h. Potency, µM (titrated, usually from 38.3 µM), for the others: at the top dose activity change, negative = inhibition, usual class: inhibitors. AID 624418. 410,000 tested, 0.13% active;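 also: loss of luciferase light is scored as toxicity; potency is read from the fitted curve at half-maximal effect; % is scaled to controls: 0 for no effect and ±100 for the full control effect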
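Seeding density was 200 cells/uL; after overnight-length (12 h) culture, 23 nL compounds went on for 24 h at 37 °C. Readout used a luciferase detection reagent, luminescence taken after 12 min at room temperature.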
D3 antag: antagonists of human D3 dopamine receptor; P35462; D3R cells, DiscoveRx beta-arrestin luminescence, antagonist mode; stronger effect = lower value; max response, negative = inhibition, %; 360,000 tested, 2.5% active; in the data active = max response below about -50%; inconclusive = no clear call, values can overlap the other calls; also: % is scaled to controls: 0 for no effect and ±100 for the full control effect; mostly tested at two doses, the higher about 12 µM
Target sequence (P35462 whole entry, looked up): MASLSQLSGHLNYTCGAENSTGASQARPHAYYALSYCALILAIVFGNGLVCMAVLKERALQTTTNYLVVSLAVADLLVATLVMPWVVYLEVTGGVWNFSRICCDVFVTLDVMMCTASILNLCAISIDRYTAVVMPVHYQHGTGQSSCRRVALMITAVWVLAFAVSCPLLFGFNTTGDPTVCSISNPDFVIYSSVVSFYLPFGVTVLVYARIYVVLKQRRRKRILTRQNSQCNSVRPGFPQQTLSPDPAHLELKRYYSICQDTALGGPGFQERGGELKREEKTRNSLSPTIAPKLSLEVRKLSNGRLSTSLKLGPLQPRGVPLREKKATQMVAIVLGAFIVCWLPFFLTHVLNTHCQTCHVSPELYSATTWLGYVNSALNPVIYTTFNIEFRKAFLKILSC
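Cells expressing the human receptor were seeded at 1500 cells/well, incubated overnight at 37 degrees C in 5% CO2, then exposed to library compounds with dopamine controls for 90 minutes at 37 degrees C before luminescent detection.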
DRD3 agonist: D3 dopamine receptor (human) agonism; D3R DiscoveRx beta-arrestin cells, luminescence, 90 min; P35462; 410,000 tested, 0.58% active; AID 652048; max activation, %; in the data active = max activation above about 30%; also: 0% is about no effect; mostly tested at two doses, the higher about 12 µM
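Cells at 1500/well, incubated overnight, then treated with pinned compounds (dopamine as control) for 90 min at 37 degrees C. DiscoveRx reagent added for 30 - 60 minutes at room temperature; luminescence read.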
aSyn rescue: rescues yeast growth from alpha-synuclein toxicity; Yeast expressing alpha-synuclein, growth rescue, BacTiter-Glo, 24 h; Potency, µM (highest dose often 46.1 µM), for the others: top-dose growth rescue (activation), actives largely listed as activators; 370,000 tested, 0.14% active; also: potency is read from the fitted curve at half-maximal effect; % of control where 0% means no effect; nearly all actives have a fitted effect of over 65% in size
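Screening used galactose-induced yeast with toxic alpha-synuclein levels, exposed to compound for 24 hr at 30 deg C. Cell growth, read with BacTiter-Glo luminescence, gave the measured signal.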
TDP43 rescue: inhibitors of TDP-43 toxicity in yeast. AID 652104. Potency, µM (doses to about 46.1 µM), without a hit: top-dose growth rescue (activation), most hits filed as activators. 410,000 tested, 1.8% active. TDP-43 expressing yeast growth rescue, BacTiter-Glo, 24 h; also: potency is read from the fitted curve at half-maximal effect; % of control where 0% means no effect; nearly all actives have a fitted effect of over 50% in size
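Yeast expressing TDP-43 (pregrown in raffinose, seeded at OD600=0.02 in galactose medium) exposed to compounds 24 hr at 30 deg C. Growth read by BacTiter-Glo luminescence; rescue of toxicity appears as increased signal.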
KB-V1 cytotox: KB-V1 MDR subline cytotoxicity; KB-V1 MDR cells viability, CellTiter-Glo, 72 h; Potency, µM (series often up to 46.1 µM), without a hit: at the highest dose activity change, negative = cytotoxicity, actives largely listed as cytotoxic; 400,000 tested, 3.4% active; also: potency is read from the fitted curve at half-maximal effect; % is scaled to controls: 0 for no effect and ±100 for the full control effect; nearly all actives have a fitted effect of over 60% in size
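KB-V1 cells (P-gp-expressing MDR subline of KB-3-1) in phenol-red-free DMEM with 10% FBS were exposed to library compounds over a concentration series for 72 h at 37 degrees C. Viability read by CellTiter-Glo luminescence; concentration-effect curves fitted after normalization.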
GLP1R ag: GLP-1 receptor (human) agonism; P43220; HEK293 GLP-1R CRE-luciferase, luminescence, 4-6 h; cells express a hypersensitive GLP-1R form; Potency, µM (series often up to 45.6 µM), inactives show at the highest dose activation, usual class: activators; 380,000 tested, 0.007% active; also: potency is read from the fitted curve at half-maximal effect; % of control where 0% means no effect
Target sequence (P43220 whole entry, looked up): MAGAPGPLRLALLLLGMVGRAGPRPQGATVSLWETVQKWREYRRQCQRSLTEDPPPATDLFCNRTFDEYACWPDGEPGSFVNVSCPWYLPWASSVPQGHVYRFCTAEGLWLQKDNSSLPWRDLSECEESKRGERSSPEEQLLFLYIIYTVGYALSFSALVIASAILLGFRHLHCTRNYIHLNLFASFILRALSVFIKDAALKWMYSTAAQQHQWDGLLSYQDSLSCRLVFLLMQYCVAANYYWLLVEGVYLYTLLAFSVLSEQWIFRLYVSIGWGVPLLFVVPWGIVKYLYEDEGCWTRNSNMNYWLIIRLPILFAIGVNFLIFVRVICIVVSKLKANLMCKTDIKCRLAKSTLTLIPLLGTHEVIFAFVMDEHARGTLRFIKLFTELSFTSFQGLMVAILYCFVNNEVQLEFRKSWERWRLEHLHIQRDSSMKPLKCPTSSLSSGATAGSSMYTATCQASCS
GLP1R inv ag: inverse agonists of human GLP-1 receptor; P43220; HEK293 GLP-1R CRE-luciferase, luminescence, 24 h; GLP-1R form is constitutively active; Potency, µM (doses to about 38.3 µM), inactives show at the top dose activity change, negative = inhibition, most hits filed as inhibitors; 410,000 tested, 1.6% active; also: potency is read from the fitted curve at half-maximal effect; % is scaled to controls: 0 for no effect and ±100 for the full control effect; nearly all actives have a fitted effect of over 55% in size
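Readout was luciferase luminescence, measured 12 min after detection reagent at room temperature. Beforehand, GLP-1R reporter HEK293 cells had sat 12 h, then received compounds for 24 hr at 37 deg C.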
Numbers without * were called inactive; ? = inconclusive; . = not tested or not shown; & = joins results of further samples; [ ] = remark or other dose. Unless noted, calls follow the shape of the dose curve; as a rule, active = well fitted curve in the direction sought with a large enough effect; inconclusive = small, poorly fitted or top-dose-only effect, or another doubt; inactive = no such curve, though single readings can be large; an effect the other way counts as inactive or inconclusive.

SMILES	GLP1R cytotox	D3 antag	DRD3 agonist	aSyn rescue	TDP43 rescue	KB-V1 cytotox	GLP1R ag	GLP1R inv ag
Cc1ccc(-c2nn(-c3ccccc3)c3[nH]c(=O)c(CNCc4ccccc4)cc23)cc1	-32%	-65*	-8	-29%	-8%	-11%	0%	?
O=C(NCC1CC1)C1(S(=O)(=O)c2ccccc2)CC=CC1	7%	?	-15	-15%	?	18%	-1%	2%
O=C(CNc1n[nH]c(=O)[nH]c1=O)N/N=C/C=C/c1ccccc1	6%	6	2	-13%	13%	8%	9%	15%
CCn1nc(C(=O)NNS(=O)(=O)c2cc(/C=C/C(=O)O)cc(OC)c2OC)c2ccccc2c1=O	9%	-15	-2	-7%	10%	1%	-2%	9%
COc1cccc(C2C(C(=O)Nc3cccnc3)=C(C)Nc3nc(SCc4ccccc4)nn32)c1 (stereo not given)	0%	.	0	.	6%	-8%	2%	17%
Cc1cc(C)cc(NS(=O)(=O)c2ccc(NC(=S)NC(=O)c3cccs3)cc2)c1	?	-84*	-18	11%	20%	2.9µM*	-7%	0%
Cc1cccc(-c2nc3c4ccccc4nc(NCc4ccc(F)cc4)n3n2)c1	9%	.	-14	.	8%	.	.	10%
COC(=O)CN(c1ccc(OC)c(OC)c1)S(C)(=O)=O	-1%	15	1	0%	6%	2%	-4%	-24%
c1ccc(C2C3=C(Nc4ncnn42)c2ccccc2CCC3)cc1 (stereo not given)	7%	-11	-16	-3%	4%	18µM*	9%	3%
Cc1[nH]n2c(=O)c3c(nc2c1-c1ccc(F)cc1)CCCC3	22%	-6	-7	-6%	5%	0%	6%	0%
COC(=O)c1cccc(CN2C(=O)SC(Nc3ccc(C)cc3)C2=O)c1 (stereo not given)	6%&10%	14	-1&-1	13%	22%&30%	-19%&2%	-3%	-23%&6%
COc1ccc(S(=O)(=O)N2CCCC(C(=O)NCCCn3ccnc3)C2)cc1OC (stereo not given)	-2%	-4	-24	-3%	-26%	-13%	0%	-16%
NC(=O)C(c1ccc(Cl)cc1)c1ccc(Sc2ccccc2)nn1 (stereo not given)	-7%	-7	-8	-4%	2%	-15%	6%	?
CC(C)S(=O)(=O)c1csc(C(=O)NN)c1-n1cccc1	12%	6	-5	-7%	-5%	2%	0%	-12%
Cc1ccc(-c2c(NCCc3ccccc3)c(=O)c2=O)cc1	2%	0	1	-8%	-20%	0%	4%	-18%
COCCCNC(=S)N1CCN(C(=O)C(=O)Nc2ccc(C(=O)OC)cc2)CC1	-3%	-2	2	2%	-2%	-3%	-3%	1%
COC(=O)[C@H](C(C)C)N(Cc1ccccc1)S(=O)(=O)CCNC1CCCC1	-3%	0	-19	-1%	-9%	-2%	5%	?
CCOC(=O)N1CCN(Cc2nc3cc(NC(=O)c4cccs4)ccc3n2CC)CC1	-22%	0	1	-5%	10%	?	5%	?
Nc1nc2c3ccccc3nc(C3CC3)n2n1	6%	-2	-11	0%	0%	-4%	23%	209%[activator]
COc1ccc(Br)cc1/C=N/n1c(C)nnc1C	4%	6	-4	1%	-11%	-1%	3%	14%
CC(C)(C)S(=O)(=O)N1C[C@H]2CC/C=C\C/C(c3ccccc3)=C\2[C@@H]1CCO	-8%	-17	-25	12%	-5%	0%	-2%	-25%
CCOC(=O)C1CCN(c2c(C(=O)c3ccccc3)cnc3ccc(Cl)cc23)CC1	1%	17	-6	-5%	25%	26%	0%	-21%
COc1ccc(C(=O)NCC(=O)OCC(=O)N(C)c2ccccc2)cc1	-3%	4	3	2%	7%	-3%	-2%	1%
CCCCN(C)CCC(=O)Nc1ccc(F)c(F)c1	2%	?	-6	-2%	10%	10%	-1%	-15%
COC(=O)CSc1nc(SC)nc2c1sc1nc(-c3ccco3)c3c(c12)CC(C)(C)OC3	19%	-4	-3	0%	0%	23%	10%	23%

Four consecutive entries out of the list so far:
SMILES	GLP1R cytotox	D3 antag	DRD3 agonist	aSyn rescue	TDP43 rescue	KB-V1 cytotox	GLP1R ag	GLP1R inv ag
Cc1cc(C)cc(NS(=O)(=O)c2ccc(NC(=S)NC(=O)c3cccs3)cc2)c1	?	-84*	-18	11%	20%	2.9µM*	-7%	0%
Cc1cccc(-c2nc3c4ccccc4nc(NCc4ccc(F)cc4)n3n2)c1	9%	.	-14	.	8%	.	.	10%
COC(=O)CN(c1ccc(OC)c(OC)c1)S(C)(=O)=O	-1%	15	1	0%	6%	2%	-4%	-24%
c1ccc(C2C3=C(Nc4ncnn42)c2ccccc2CCC3)cc1 (stereo not given)	7%	-11	-16	-3%	4%	18µM*	9%	3%

The list goes on.
SMILES	GLP1R cytotox	D3 antag	DRD3 agonist	aSyn rescue	TDP43 rescue	KB-V1 cytotox	GLP1R ag	GLP1R inv ag
COc1ccc(N(CC(=O)N2CCCCCC2)S(C)(=O)=O)cc1Cl	4%	8	0	0%	17%	-11%	2%	11%
Cc1cccc(/C=C2/S/C(=N/N=C3\CC4CCC3(C)C4(C)C)NC2=O)c1 (stereo not given)	36%[activator]	20	-5	11%	3%	21µM*	-38%	?
CCOC(=O)N1CCN(Cc2nc3cc(NC(=O)c4ccccc4[N+](=O)[O-])ccc3n2C(C)C)CC1	-28%	.	0	.	7%	.	.	?
Cc1cc(C(=O)NCC(=O)OCC(=O)NCC2CCCO2)ccc1[N+](=O)[O-] (stereo not given)	4%	-4	0	1%	2%	14%	-1%	-1%
COc1ccc(Nc2cc(NCCCO)c([N+](=O)[O-])c3nonc23)cc1	-22%	-9	-4	-9%	5%	-1%	12%	47%[activator]
Nn1cnnc1SCC(=O)N(C1CCCCC1)C1CCCCC1	-11%	1	3	-1%	-3%	8%	1%	-23%
CS(=O)(=O)N(CC(=O)N1CCN(Cc2ccccc2)CC1)c1cccc([N+](=O)[O-])c1	-12%	2	-3	1%	9%	-13%	1%	-6%
Clc1ccc(CNc2nc3ccccc3c3nc(-c4cccnc4)nn23)cc1	-8%	.	-5	.	24%	30%	.	-14%
O=C(CNC(=O)C1CC(=O)N(c2cccc3ccccc23)C1)Nc1ccccc1Br (stereo not given)	-1%	-5	-8	8%[1.84 µM]	-11%	-22%	-1%	-20%
CS(=O)(=O)N(CC(=O)N1CCN(Cc2ccccc2)CC1)c1ccccc1Br	3%	-58*	-20	0%	3%	3%	2%	-17%
Fc1ccc(-c2csc(-c3cccnc3)n2)cc1F	-6%	5	5	11%	?	15%	19%	39%[activator]
C[C@H](NC(=O)c1nc[nH]c1C(=O)NC1CCN(C(=O)OC(C)(C)C)CC1)C(=O)OC(C)(C)C	-5%	-17	-22	-22%	-18%	-2%	1%	35%[activator]
CC(/C=C/c1ccccc1)=N/NC(=O)c1cc([N+](=O)[O-])cc([N+](=O)[O-])c1	16%	-16	-2	6%	5%	-59%	-2%	15%
COC(=O)c1ccc(C2NC(=S)N(c3ccccc3)C(C)=C2C(=O)Nc2ccccc2OC)cc1 (stereo not given)	-10%	-9	-3	1%	13%	0%	-2%	2%
NS(=O)(=O)c1cccc(NC(=O)Cn2nc(C(=O)O)c3ccccc3c2=O)c1	12%	-12	-6	-6%	-32%[inhibitor]	-16%	11%	1%
CC(C)CCN1CCC(CN2CCNC(=O)C2=O)CC1	-4%	21	-9	2%	12%	14%	-1%	8%
O=C(Nc1cccc(-n2cnnn2)c1)c1ccoc1COc1ccc(Cl)cc1	-30%	0	-1	-1%	18%	-5%	10%	?
CCC(=O)N/N=c1/sc2ccccc2n1C	2%	0	3	14%	0%	-11%	4%	-9%
CCc1nc2ccc(C(=O)Nc3cc(-c4ccccc4)ccc3OC)cn2c1N(C)CCC(C)C	?	60	15	-55%[inhibitor]	-81%[inhibitor]	2%	10%	?
COc1ccc(/C=N/NC(=O)c2cccc(C(=O)N/N=C/c3ccc(OC)cc3)n2)cc1	-2%	-2	-1	2%	18%	3%	-2%	7%
Cc1cc(NC(=O)CCN2CCN(CCO)CC2)ccc1Br	0%	-3	3	1%	-8%	13%	-4%	?
CC1CCN(C(c2cc3cc4c(cc3[nH]c2=O)OCO4)c2nnnn2CC2CCCO2)CC1 (stereo not given)	6%	-23	-7	-3%	0%	-14%	-13%	0%
CC(=O)N1CCc2cc(C(=O)CN3CCN(C(=O)c4ccco4)CC3)ccc21	-3%	11	7	6%	13%	-3%	17%	16%
NS(=O)(=O)c1ccc(NC(=O)COC(=O)C2(c3ccccc3F)CCCC2)cc1	5%	-3	-5	3%	-4%	?	-2%	?
CCOc1cc([C@H]2[C@@H]3CCCC[C@]3(O)CCN2CC(=O)NCc2ccco2)ccc1O	0%	4	-8	1%	3%	11%	-8%	1%
CCN(CC)CCOCCOc1ccc(Cl)c2ccccc12	-27%	-30	-25	0%	-11%	-14%	2%	?
O=C(O)CCn1c(=O)c2ccccc2c2ccccc2c1=O	4%	8	1	0%	-7%	-2%	4%	2%
Cc1nn2c(-c3ccccc3)ccnc2c1-c1ccccc1	-17%	25	2	13%	22%	15µM*	22%	-11%
O=C(Cc1ccccc1)NCc1ccccn1	0%	-10	0	-10%	9%	11%	-1%	18%

4 compounds from above, ordered by SMILES length, descending:
SMILES	GLP1R cytotox	D3 antag	DRD3 agonist	aSyn rescue	TDP43 rescue	KB-V1 cytotox	GLP1R ag	GLP1R inv ag
C[C@H](NC(=O)c1nc[nH]c1C(=O)NC1CCN(C(=O)OC(C)(C)C)CC1)C(=O)OC(C)(C)C	-5%	-17	-22	-22%	-18%	-2%	1%	35%[activator]
CCOC(=O)N1CCN(Cc2nc3cc(NC(=O)c4ccccc4[N+](=O)[O-])ccc3n2C(C)C)CC1	-28%	.	0	.	7%	.	.	?
COc1ccc(N(CC(=O)N2CCCCCC2)S(C)(=O)=O)cc1Cl	4%	8	0	0%	17%	-11%	2%	11%
O=C(O)CCn1c(=O)c2ccccc2c2ccccc2c1=O	4%	8	1	0%	-7%	-2%	4%	2%

Compound activity (PubChem)

The list is partial; count on the stated rates, not on these rows.
